MLL AF4-AF9 inh: inhibitors of human MLL-AF4/AF9 interaction; AID 651704; inhibition, % at 10 µM; actives 0.47% (n = 350,000); AlphaScreen, biotin-AF4 peptide binding to FLAG-AF9;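 active = every replicate reaching a set inhibition limit, whatever the replicate mean, cut at about 25% in these data; inconclusive = mean inhibition reaches that limit but some replicates miss it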;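 note: 0% = plate neutral control median and 100% = total signal loss; the record names both 10 and 1 µM as test concentration; the first replicate is given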
Target sequence (P42568 whole entry, looked up): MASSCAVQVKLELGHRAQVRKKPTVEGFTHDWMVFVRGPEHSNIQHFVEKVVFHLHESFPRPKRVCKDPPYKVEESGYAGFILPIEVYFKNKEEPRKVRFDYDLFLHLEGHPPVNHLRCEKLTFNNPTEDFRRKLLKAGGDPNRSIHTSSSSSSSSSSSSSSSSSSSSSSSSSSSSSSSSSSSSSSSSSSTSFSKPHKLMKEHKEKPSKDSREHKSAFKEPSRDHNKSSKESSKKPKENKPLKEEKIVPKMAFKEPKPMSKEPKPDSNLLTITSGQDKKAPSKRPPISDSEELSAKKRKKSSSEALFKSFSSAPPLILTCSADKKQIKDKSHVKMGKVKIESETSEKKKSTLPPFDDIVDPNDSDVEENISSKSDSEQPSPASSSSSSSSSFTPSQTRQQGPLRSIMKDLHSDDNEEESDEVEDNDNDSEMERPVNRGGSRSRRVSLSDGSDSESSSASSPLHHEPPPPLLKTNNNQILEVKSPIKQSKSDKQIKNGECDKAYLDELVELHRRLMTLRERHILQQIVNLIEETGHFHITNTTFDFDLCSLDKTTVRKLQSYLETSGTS
The depositor's hits bear a star; ? = inconclusive. The list is partial; count on the stated rates, not on these rows.

Start of the data: the first 12 entries as a preview:
SMILES | MLL AF4-AF9 inh
COCC(=O)N1CC(=O)N2[C@H](CO)[C@@H](c3ccc(C#CC4CCCCC4)cc3)[C@@H]2C1 | 4.8
COc1ccc(NC(=O)C(c2ccncc2)n2c(=O)c(-c3ccccc3)nc3ccccc32)cc1 (centres undefined) | 3.5
C[C@@H]1CCCCO[C@@H](CN(C)S(=O)(=O)c2ccccc2)[C@@H](C)CN([C@@H](C)CO)C(=O)c2cc(N(C)C)ccc2O1 | 0.0
CC1(C(=O)NS(=O)(=O)c2cccc(F)c2)CCN1C(=O)c1ccco1 (centres undefined) | 1.0
CC1(C(=O)NS(=O)(=O)c2cccc(C#N)c2)CCN1C(=O)Cc1ccccc1Cl (centres undefined) | -1.3
CC(C)NC(=O)N(C)C[C@H]1Oc2ccc(NC(=O)Nc3ccccc3)cc2C(=O)N([C@H](C)CO)C[C@H]1C | -3.1
COc1ccc(CN2C(=O)C(CC(=O)NCc3cccc4ccccc34)CC(C(=O)N(C(C)C)C(C)C)=C2C)cc1 (centres undefined) | -0.6
O=S(=O)(N[C@H]1CC[C@@H](CCn2cc(-c3cccc(F)c3)nn2)O[C@@H]1CO)c1ccc(Cl)cc1 | -0.5
C[C@H]1CN([C@@H](C)CO)C(=O)c2cc(C#Cc3ccccc3)cnc2O[C@H]1CN(C)C(=O)CN(C)C | 7.8
COc1ccc2c3c(n(C)c2c1)[C@H](CO)N(C(=O)Nc1ccc(F)cc1)CC31CN(C)C1 | ?
COc1ccc2c3c([nH]c2c1)[C@H](CO)N(C(=O)CN(C)C)CC31CN(Cc2ccncc2)C1 | 8.6
CCNC(=O)C1(C)CCCN(C(=O)c2cccnc2Oc2ccccc2)C1 (centres undefined) | -0.1

This part in full (from the top)
SMILES | MLL AF4-AF9 inh
COCC(=O)N1CC(=O)N2[C@H](CO)[C@@H](c3ccc(C#CC4CCCCC4)cc3)[C@@H]2C1 | 4.8
COc1ccc(NC(=O)C(c2ccncc2)n2c(=O)c(-c3ccccc3)nc3ccccc32)cc1 (centres undefined) | 3.5
C[C@@H]1CCCCO[C@@H](CN(C)S(=O)(=O)c2ccccc2)[C@@H](C)CN([C@@H](C)CO)C(=O)c2cc(N(C)C)ccc2O1 | 0.0
CC1(C(=O)NS(=O)(=O)c2cccc(F)c2)CCN1C(=O)c1ccco1 (centres undefined) | 1.0
CC1(C(=O)NS(=O)(=O)c2cccc(C#N)c2)CCN1C(=O)Cc1ccccc1Cl (centres undefined) | -1.3
CC(C)NC(=O)N(C)C[C@H]1Oc2ccc(NC(=O)Nc3ccccc3)cc2C(=O)N([C@H](C)CO)C[C@H]1C | -3.1
COc1ccc(CN2C(=O)C(CC(=O)NCc3cccc4ccccc34)CC(C(=O)N(C(C)C)C(C)C)=C2C)cc1 (centres undefined) | -0.6
O=S(=O)(N[C@H]1CC[C@@H](CCn2cc(-c3cccc(F)c3)nn2)O[C@@H]1CO)c1ccc(Cl)cc1 | -0.5
C[C@H]1CN([C@@H](C)CO)C(=O)c2cc(C#Cc3ccccc3)cnc2O[C@H]1CN(C)C(=O)CN(C)C | 7.8
COc1ccc2c3c(n(C)c2c1)[C@H](CO)N(C(=O)Nc1ccc(F)cc1)CC31CN(C)C1 | ?
COc1ccc2c3c([nH]c2c1)[C@H](CO)N(C(=O)CN(C)C)CC31CN(Cc2ccncc2)C1 | 8.6
CCNC(=O)C1(C)CCCN(C(=O)c2cccnc2Oc2ccccc2)C1 (centres undefined) | -0.1
CC(C)NC(=O)N(C)C[C@@H]1Oc2ncc(C#Cc3ccccc3F)cc2C(=O)N([C@H](C)CO)C[C@@H]1C | 2.6
CC(C)CC#Cc1ccc2c(c1)O[C@H](CN(C)C(=O)Nc1ccccc1)[C@H](C)CN([C@H](C)CO)S2(=O)=O | -5.7
C[C@@H]1CN([C@H](C)CO)C(=O)c2cc(NC(=O)Nc3ccc(F)cc3)ccc2O[C@@H]1CN(C)S(=O)(=O)c1ccc(F)cc1 | -0.6
CCCNC(=O)N(C)C[C@@H]1Oc2cc(C#C[C@@H](C)O)ccc2S(=O)(=O)N([C@H](C)CO)C[C@H]1C | -2.1
CCCS(=O)(=O)NC(=O)C1(C)CCCN(C(=O)c2ccc(C(F)(F)F)nc2C)C1 (centres undefined) | 1.7
O=C(C[C@H]1C[C@H]2c3cc(NC(=O)Nc4ccc(C(F)(F)F)cc4)ccc3O[C@H]2[C@H](CO)O1)NCCc1ccccc1 | -1.8
Cc1noc(C)c1NC(=O)N(C)C[C@@H]1Oc2ccc(NS(=O)(=O)c3ccccc3)cc2CC(=O)N([C@@H](C)CO)C[C@@H]1C | -0.7
CC(C)NC(=O)Nc1ccc2c(c1)CC(=O)N([C@H](C)CO)C[C@@H](C)[C@@H](CN(C)S(=O)(=O)c1cccs1)O2 | -8.7
Cn1cnc(S(=O)(=O)N2C[C@H](O)COC[C@@H]3O[C@H](CC(=O)NCc4cc(F)cc(F)c4)CC[C@H]32)c1 | -4.0
CCCNC(=O)N1CC2(C1)[C@H](c1ccccc1)[C@H](CO)N2Cc1cccc(F)c1 | -1.1
CCCCS(=O)(=O)N1CCN(C(=O)C(=O)c2cccc(C(F)(F)F)c2)CC1 | -1.8
COc1ccc(CCN2C(=O)[C@@]3(Cc4ccccc42)c2ccccc2C(=O)N(C2CCCCC2)[C@H]3c2ccc(CO)cc2)cc1 | 1.8
C[C@@H]1CCCCO[C@H](CN(C)S(=O)(=O)c2ccc(Cl)cc2)[C@H](C)CN([C@@H](C)CO)C(=O)c2cc(NC(=O)CCCN(C)C)ccc2O1 | 14
N#Cc1ccc(S(=O)(=O)N2CCN(CN3C(=O)CC4(CCCC4)C3=O)CC2)cc1 | -4.2
C[C@H](CO)N1C[C@H](C)[C@@H](CN(C)Cc2ccc(C(F)(F)F)cc2)Oc2ccc(NC(=O)Nc3ccc(C(F)(F)F)cc3)cc2CC1=O | -1.0
O=S1(=O)N[C@@H](Cc2ccccc2)COc2cccc(N3CCCCC3)c21 | 0.9
O=C(C[C@@H]1CC[C@@H](NC(=O)Nc2ccccc2F)[C@@H](CO)O1)NCc1ccccc1 | -4.2
CC1(C(=O)Nc2nccs2)CCN1C(=O)CC(c1ccccc1)c1ccccc1 (centres undefined) | -5.5
Cc1ccc(S(=O)(=O)NCC[C@H]2CC[C@H](NC(=O)Nc3cccc(F)c3)[C@H](CO)O2)cc1 | 0.5
COc1cccc(NC(=O)C[C@H]2CC[C@H]3[C@H](COc4ccc(NC(=O)C5CCC5)cc4C(=O)N3C)O2)c1 | -4.0
C[C@@H]1CCCCO[C@@H](CN(C)C(=O)Cc2ccccc2)[C@@H](C)CN([C@H](C)CO)C(=O)c2cc(NC(=O)Nc3ccc(C(F)(F)F)cc3)ccc2O1 | -1.3
Cc1noc(C)c1S(=O)(=O)Nc1ccc2c(c1)C(=O)N([C@@H](C)CO)C[C@H](C)[C@@H](CN(C)Cc1ccc(Cl)c(Cl)c1)O2 | 2.0
N#Cc1ccc(-c2ccc3c(c2)[C@H]2[C@H](CCN2C(=O)Cc2ccccc2)[C@H](CO)N3)cc1 | -3.0
C=CCNc1n[nH]c(=S)s1 | 2.1
CN1CCN(C(=O)C[C@@H]2CC[C@@H]3[C@@H](COc4ccc(NC(=O)C5CCC5)cc4C(=O)N3C)O2)CC1 | 0.8
C[C@@H]1CCCCO[C@@H](CN(C)Cc2ccc(C(F)(F)F)cc2)[C@@H](C)CN([C@@H](C)CO)C(=O)c2cc(NC(=O)c3ccncc3)ccc2O1 | 5.4
Cc1ccc(-c2ccc3c(c2)O[C@H](CN(C)C(=O)CN(C)C)[C@H](C)CN([C@@H](C)CO)S3(=O)=O)cc1 | 7.7
C[C@H](CO)N1C[C@H](C)[C@@H](CN(C)S(=O)(=O)c2ccccc2F)Oc2ncc(C#Cc3ccccc3)cc2C1=O | -1.0
OC[C@@H]1Nc2ccc(-c3cccc(F)c3)cc2[C@H]2[C@@H]1CCN2Cc1ccncc1 | -0.8
COc1ccc(CN2C[C@H](O)COC[C@H]3O[C@H](CC(=O)N4CCc5ccccc5C4)CC[C@@H]32)cc1 | 2.3
CO[C@@H]1CN(C)C(=O)c2ccc(NC(=O)NC(C)C)cc2OC[C@H](C)N(C)C[C@H]1C | 0.2
CO[C@@H]1CN(C)C(=O)c2cc(NS(=O)(=O)c3cn(C)cn3)ccc2OC[C@H](C)N(CC2CC2)C[C@@H]1C | 3.8
Cc1ccc(S(=O)(=O)N(C)C[C@H]2Oc3ccc(NC(=O)Nc4c(C)noc4C)cc3CC(=O)N([C@@H](C)CO)C[C@H]2C)cc1 | 0.2
O=C(NCC1CC1)[C@H]1[C@H](CO)[C@H]2Cn3c(ccc(-c4ccccc4)c3=O)[C@H]2N1CC1CC1 | -6.4
C[C@@H]1CCCCO[C@@H](CN(C)C(=O)c2ccccc2)[C@@H](C)CN([C@@H](C)CO)C(=O)c2cc(NC(=O)Nc3ccc(C(F)(F)F)cc3)ccc2O1 | 1.7
NCC[C@H]1CC[C@H](NC(=O)Nc2ccc(F)cc2)[C@@H](CO)O1 | 5.7
C[C@H]1CN([C@@H](C)CO)C(=O)c2cc(NC(=O)CCC(F)(F)F)ccc2O[C@H]1CN(C)C(=O)NC1CCCCC1 | -2.9
Cc1noc(C)c1S(=O)(=O)Nc1ccc2c(c1)C(=O)N([C@@H](C)CO)C[C@H](C)[C@@H](CN(C)C(=O)Cc1ccccc1)OCCCC[C@H](C)O2 | 3.6

The listing continues.
SMILES | MLL AF4-AF9 inh
CCc1nc2c(OCCn3cccc3)cccn2c1N(C)C(=O)CC(C)C | 1.7
C[C@H](CO)N1C[C@H](C)[C@H](CN(C)C(=O)c2ccccc2)Oc2cc(/C=C/c3ccccc3)ccc2S1(=O)=O | 5.0
CCN1[C@@H]2c3ccc(-c4ccccc4)c(=O)n3C[C@@H]2[C@@H](CO)[C@@H]1C(=O)N1CCN(C)CC1 | -1.2
CC(C)C#Cc1cnc2c(c1)C(=O)N([C@H](C)CO)C[C@@H](C)[C@@H](CN(C)Cc1ccccc1F)O2 | -0.8
C[C@H](CO)N1C[C@H](C)[C@H](CN(C)C(=O)Nc2ccc3c(c2)OCO3)OCCCC[C@H](C)Oc2ccc(NS(=O)(=O)c3cccs3)cc2C1=O | 0.1
CCC(=O)Nc1ccc2c(c1)OC[C@@H](C)N(Cc1cccc(F)c1)C[C@H](C)[C@H](OC)CN(C)C2=O | 2.3
C[C@H]1CN([C@@H](C)CO)C(=O)c2cccc(NC(=O)C3CCOCC3)c2O[C@H]1CN(C)CC1CCCCC1 | -2.8
COc1ccc2c3c(n(C)c2c1)[C@@H](CO)N(Cc1ccc2c(c1)OCO2)CC31CN(C)C1 | 20
COc1ccc(S(=O)(=O)Nc2ccc3c(c2)C(=O)N([C@H](C)CO)C[C@@H](C)[C@H](CN(C)Cc2ccc4c(c2)OCO4)OCCCC[C@H](C)O3)cc1 | 1.9
COc1cccc(S(=O)(=O)N2C[C@@H](O)COC[C@@H]3O[C@H](CC(=O)N4CCN(C)CC4)CC[C@H]32)c1 | 0.1
CCC(=O)N1C[C@@H](C)[C@@H](OC)CN(C)C(=O)c2cc(NC(=O)COC)ccc2OC[C@H]1C | 6.6
CCOC(=O)C1(C)CCCN(C(=O)COc2ccccc2)C1 (centres undefined) | 2.5
C=C[C@@H](c1ccccc1)[C@](C)(O)C(=O)O | -4.1
O=C(C[C@@H]1CC[C@H](NC(=O)c2cccnc2)[C@H](CO)O1)NCCN1CCCCC1 | -2.0
C[C@H]1CN([C@@H](C)CO)C(=O)c2cc(NC(=O)Cc3ccccc3)ccc2O[C@H]1CN(C)C | -2.1
COc1ccc(-c2ccc3c(c2)O[C@@H](CN(C)Cc2cccnc2)[C@@H](C)CN([C@H](C)CO)S3(=O)=O)cc1 | 0.8
CCCC#Cc1ccc([C@@H]2[C@@H](CO)N(C(=O)C3CCC3)[C@H]2C#N)cc1 | 0.7
COc1cccc(C(C)(O)c2nc(-c3cccc(C(F)(F)F)c3)cs2)c1 (centres undefined) | -7.2
C[C@@H]1CN([C@H](C)CO)C(=O)c2cc(NS(=O)(=O)c3ccccc3)ccc2O[C@@H](C)CCCCO[C@H]1CN(C)Cc1ccncc1 | -20
C[C@H](CO)N1C[C@H](C)[C@@H](CN(C)S(=O)(=O)c2cn(C)cn2)OCCCC[C@H](C)Oc2ccc(NS(=O)(=O)c3ccc(F)cc3)cc2C1=O | -1.5
COc1cccc(NC(=O)N2CC(=O)N3[C@H](CO)[C@H](c4ccc(C#CC5CCCC5)cc4)[C@@H]3C2)c1 | 1.2
CC=Cc1ccc2n(c1=O)C[C@H]1[C@H](CO)[C@@H](C(=O)NCC3CC3)[C@@H]2N1Cc1cccnc1 (mixture of isomers) | -4.0
O=C(C[C@@H]1C=C[C@H](NC(=O)Nc2cc(F)ccc2F)[C@H](CO)O1)NCc1ccncn1 | -1.6
CNC[C@@H]1Oc2ccc(NS(=O)(=O)c3ccc(F)cc3)cc2CC(=O)N([C@@H](C)CO)C[C@H]1C | -3.6
CC1(Oc2ccc(Cl)cc2)CCN(Cc2ccc(-c3ccccn3)cc2)C1 (centres undefined) | 1.7
C[C@@H]1CN([C@@H](C)CO)C(=O)c2cc(NC(=O)Nc3ccc4c(c3)OCO4)ccc2O[C@H]1CN(C)Cc1ccncc1 | -19
CC(C)(O)C#Cc1ccc([C@@H]2[C@@H](CO)N3CCCCN(S(C)(=O)=O)C[C@H]23)cc1 | 0.6
O=C(C[C@H]1C[C@@H]2c3cc(NC(=O)NC4CCCC4)ccc3O[C@@H]2[C@H](CO)O1)NCCc1ccccc1 | -1.6
COCc1cn(CC[C@@H]2CC[C@H](NC(=O)Nc3ccccc3)[C@H](CO)O2)nn1 | -11
O=C(C1CC1)N1CC[C@@H]2[C@H](CO)Nc3ccc(Br)cc3[C@@H]21 | -0.4
O=S(=O)(c1ccccc1)N1CCCCN2[C@@H](CO)[C@H](c3ccc(-c4ccccc4)cc3)[C@@H]2C1 | -7.0
O=C1CCCN1C1CCN(Cc2ccccc2)S(=O)(=O)N1 (centres undefined) | -2.1
CCC(=O)N(C)C[C@H]1Oc2cc(-c3cccc(F)c3)ccc2S(=O)(=O)N([C@H](C)CO)C[C@H]1C | 0.2
O=C(C[C@@H]1CC[C@@H](NC(=O)C2CCC2)[C@@H](CO)O1)NCc1ccccc1Cl | 0.2
